# GIV Gai3 FP – inhibitors of GIV peptide binding to Galpha-i3, primary screen, biochemical, fluorescence polarization, FITC-GIV GBA peptide, rat Galphai3 | 90 min; active compounds read low; scaled: aluminum fluoride 0%, vehicle 100% | percent of control (FP), % (test concentration not listed) | 210,000 tested, 0.42% active | AID 1224905, 2016;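 active means replicate mean at 85% of control or lower, very high polarization wells dropped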;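 further: lower values mean more displacement of the GIV peptide from Galpha-i3; wells of about 15 µL received 100 nL stock; the first replicate is given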
# Target sequence (P08753 whole entry, looked up): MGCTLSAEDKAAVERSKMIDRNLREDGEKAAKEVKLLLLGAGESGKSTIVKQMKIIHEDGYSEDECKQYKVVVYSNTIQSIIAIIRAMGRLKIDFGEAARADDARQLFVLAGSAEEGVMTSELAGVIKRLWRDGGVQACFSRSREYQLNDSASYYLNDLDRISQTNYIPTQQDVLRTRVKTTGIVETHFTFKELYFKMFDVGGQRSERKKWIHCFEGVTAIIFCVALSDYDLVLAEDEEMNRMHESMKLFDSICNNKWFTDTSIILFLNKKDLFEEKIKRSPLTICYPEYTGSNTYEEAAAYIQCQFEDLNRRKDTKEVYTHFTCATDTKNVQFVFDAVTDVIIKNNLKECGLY
# Sa growth inh – S. aureus growth inhibition at 42 and 30 °C, primary screen, LtaS inhibitor project, RN4220, two temperatures; OD600, 20 h, 42 °C; active compounds read low; relative growth, % (no concentration beside the values); 170,000 tested, 0.53% active;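 active means growth at 42 °C up to 50% and 20 or more points under that at 30 °C, or under 10% at both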;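 further: 300 nL library stock went into each well; scaled to the means of positive and negative controls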
# HCMV NEC inh – inhibitors of HCMV UL50-UL53 interaction, biochemical, HTRF. AID 1918969, 2023. HCMV UL50-UL53 nuclear egress complex (human cytomegalovirus). inhibition, % (no concentration beside the values). normalized percent inhibition. 190,000 tested, 0.15% active;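 active means both replicates at 50% or more, plus weaker picks with an unusually low signal ratio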;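 further: stock transfer was 100 nL into about 20 µL; 0% = negative control wells and 100% = wells with untagged competitor protein; inactives centre near -12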
# Sa growth inh second temp – also measured in Sa growth inh; calls as there; relative growth, %; measured here: growth at 30 °C;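 optical density after 20 h as mean of two plates; 100% = untreated growth and lower means inhibition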
# Numbers without * were called inactive; x = no result given.
1: COc1ccc(-c2c(C#N)c(N)nc3sc(C(=O)c4ccc(C)cc4)c(N)c23)cc1
2: CN(CCCNC(=O)c1cc2occc2c(Nc2ccc(F)cc2)n1)C1CCCCC1
3: O=C(NCc1ccccc1Cl)c1cc2cccc3c2n1CCS3
4: Cc1cc(C)c(C)c(S(=O)(=O)N2CCN(C(=O)CCN3C(=O)C4CC=CCC4C3=O)CC2)c1C (configuration not stated)
5: Cc1nn(-c2cccc(C(F)(F)F)c2)c(Cl)c1/C=N/NC(N)=O
compound no.	1	2	3	4	5
HCMV NEC inh	-27	-22	x	5	-15
Sa growth inh second temp	x	x	90	97	93
GIV Gai3 FP	102	104	112	x	x
Sa growth inh	x	x	82	95	79

6: O=C(NN1C(=O)/C(=C2/C(=O)N(Cc3ccccc3Cl)c3ccccc32)SC1=S)c1cccnc1
7: COc1ccc(CNC(=O)CSc2ncc(S(=O)(=O)c3ccc(C)c(Cl)c3)c(=O)[nH]2)cc1
8: Cc1ccccc1OCc1nnc(-c2ccccc2)o1
9: CCCCC1CCC(C(=O)N2CC(=O)Nc3ccc(C)cc3C2c2ccc(F)cc2)CC1 (configuration not stated)
10: Cc1nc(Nc2ccc(Cl)cc2Cl)c(C#N)c(N(C)C)n1
compound no.	6	7	8	9	10
HCMV NEC inh	12	x	x	6	1
Sa growth inh second temp	x	88	87	101	95
GIV Gai3 FP	111	100	100	103	103
Sa growth inh	x	96	92	86	95

11: CCc1ccccc1NC(=O)C(CC)n1nc(C)n2c(cc3cc(C)ccc32)c1=O (configuration not stated)
12: CN(C)C(=O)C(Sc1nnc(-c2cccs2)n1C1CC1)c1ccccc1 (configuration not stated)
13: O=C(Nc1cccc(-c2nc(-c3ccccc3)no2)c1)C1CC1
14: COc1ccc(CCNC(=O)c2cnc3sc(N4CCOCC4)nn3c2=O)cc1OC
15: CCc1cc2c(=O)oc(-c3ccc(Br)cc3)nc2s1
compound no.	11	12	13	14	15
HCMV NEC inh	x	-30	-21	x	x
Sa growth inh second temp	72	86	x	90	84
GIV Gai3 FP	102	x	104	101	104
Sa growth inh	103	81	x	103	123

16: O=C(O)Cc1nnc(-c2ccc3c(c2)OCO3)o1
17: CN1C(=O)CSc2ccc(NC(=O)NCc3cccnc3)cc21
18: CCCCc1ccc(C(=O)c2c(N)c(C(=O)Nc3cccc(OC)c3)c3ccccn23)cc1
19: O=C(O)CCSc1nnnn1C1CCCCC1
20: CC(C)=CC1C(C(=O)Nc2ccc(S(=O)(=O)N3CCOCC3)cc2)C1(C)C (configuration not stated)
compound no.	16	17	18	19	20
HCMV NEC inh	-10	x	4	-14	2
Sa growth inh second temp	79	89	99	87	76
GIV Gai3 FP	111	101	102	100	101
Sa growth inh	99	89	101	94	117

21: CS(=O)(=O)N1CCCc2cc(C(N)=O)ccc21
22: COc1cc(SC)ccc1C(=O)NCCCn1ccnc1
23: COC(=O)c1ccccc1NC(=O)C1=C(C)C(=O)OC12CCCCCC2
24: COCCNC(=O)N1CCN(Cc2nc3ccc(Cl)cc3o2)CC1
25: COc1ccccc1-c1c(C(F)(F)F)oc2c(CN3CC(C)OC(C)C3)c(O)ccc2c1=O (configuration not stated)
compound no.	21	22	23	24	25
HCMV NEC inh	-19	-13	x	-3	-26
Sa growth inh second temp	x	87	95	x	x
GIV Gai3 FP	101	x	105	111	102
Sa growth inh	x	81	86	x	x

26: O=C(Nc1cc2c(s1)CCCC2)c1ccccc1
27: COc1ccc(C2C(C(=O)Nc3ccccc3OC)=C(C)Nc3c(C(=O)Nc4ccccc4)cnn32)c(OC)c1 (configuration not stated)
28: C=CCN1C(=O)NC(=O)/C(=C/c2ccc(OCc3ccccc3Cl)c(OC)c2)C1=O
29: CCCN1CC=C2C(C#N)(C#N)C(N)=C(C)[C@H](c3ccc(C(=O)OC)cc3)[C@@]2(C)C1
30: Cc1noc2c1C(c1ccc(Br)cc1)C1=C(CCCC1=O)N2 (configuration not stated)
compound no.	26	27	28	29	30
HCMV NEC inh	-26	x	-24	2	-17
Sa growth inh second temp	52	109	x	102	x
GIV Gai3 FP	107	108	104	x	105
Sa growth inh	67	124	x	93	x

31: O=C(Nc1nc(-c2ccccn2)cs1)c1sc2ccccc2c1Cl
32: CCC(C(=O)Nc1cccc(-c2nc3cccnc3s2)c1C)c1ccccc1 (configuration not stated)
33: COc1cccc2cc(-c3nnc(-c4ccc(Cl)cc4)o3)c(=O)oc12
34: COc1ccc(C)cc1NC(=O)CCc1c(C)nn(-c2ccc(N3CCOCC3)nn2)c1C
35: O=C(OCCOc1ccc(Br)cc1)c1ccc(O)cc1
compound no.	31	32	33	34	35
HCMV NEC inh	-14	17	6	x	2
Sa growth inh second temp	x	97	96	88	97
GIV Gai3 FP	111	96	108	104	x
Sa growth inh	x	103	102	97	118

36: Cc1ccc(CNC(=O)c2nc(S(=O)(=O)Cc3ccc(C)cc3)ncc2Cl)cc1
37: Cc1oc2ncnc(N3CCOCC3)c2c1C(=O)Nc1ccc(Br)cc1F
38: COc1ccc(N2CCN(C(c3ccccc3)c3nnc(-c4ccccc4Cl)o3)CC2)cc1 (configuration not stated)
39: Cc1nn2c3c(cnc2c1-c1ccc(F)cc1)C(=O)CC(c1ccc(C(C)C)cc1)C3 (configuration not stated)
40: COC(=O)c1ccoc1-c1sc2nc(C)cc(C)c2c1N
compound no.	36	37	38	39	40
HCMV NEC inh	-10	17	x	-9	-14
Sa growth inh second temp	78	102	91	x	94
GIV Gai3 FP	99	108	104	98	x
Sa growth inh	88	85	96	x	87

# Record cards (already shown). Values in the order: HCMV NEC inh	Sa growth inh second temp	GIV Gai3 FP	Sa growth inh
# COc1ccc(N2CCN(C(c3ccccc3)c3nnc(-c4ccccc4Cl)o3)CC2)cc1 (configuration not stated) is entered as x	91	104	96
# COC(=O)c1ccoc1-c1sc2nc(C)cc(C)c2c1N is entered as -14	94	x	87
# Cc1oc2ncnc(N3CCOCC3)c2c1C(=O)Nc1ccc(Br)cc1F is entered as 17	102	108	85
# Cc1nn2c3c(cnc2c1-c1ccc(F)cc1)C(=O)CC(c1ccc(C(C)C)cc1)C3 (configuration not stated) is entered as -9	x	98	x
# Cc1ccc(CNC(=O)c2nc(S(=O)(=O)Cc3ccc(C)cc3)ncc2Cl)cc1 is entered as -10	78	99	88

# The list continues.
41: Cc1ccccc1NCc1cccn1-c1nnc(N2CCOCC2)s1
42: Cc1cc(=O)[nH]c(N2CCCC2)n1
43: COc1ccc(CN(C)C(=O)COC(=O)c2c(-c3ccccc3Cl)noc2C)cc1
44: CN(CC(=O)O)S(=O)(=O)c1ccc2oc3ccccc3c2c1
45: COc1cccc(-c2cnc(NCc3ccccc3Cl)n2C)c1
compound no.	41	42	43	44	45
HCMV NEC inh	x	-8	-33	-14	12
Sa growth inh second temp	103	86	67	93	85
GIV Gai3 FP	116	98	x	x	110
Sa growth inh	110	96	83	99	109

46: CCc1ccc(S(=O)(=O)c2nnn(-c3ccc(F)cc3)c2N)cc1
47: Cc1cc(C)n(-c2ccc(C(=O)NCCSCc3ccco3)cc2)n1
48: Cc1ccc(S(=O)(=O)C(CNC(=O)C(=O)NCCc2ccc(F)cc2)c2cccs2)cc1 (configuration not stated)
49: COc1ccc(CNC(=O)Cn2c(=O)cc(-c3ccccc3)c3c(C)nn(C)c32)cc1
50: COc1ccc2nc(SCC(=O)c3c(C)[nH]c4ccccc34)nc(C)c2c1
compound no.	46	47	48	49	50
HCMV NEC inh	-8	-30	x	x	-23
Sa growth inh second temp	92	90	86	83	93
GIV Gai3 FP	102	x	91	103	102
Sa growth inh	95	81	123	91	106

51: Cc1cc(=O)[nH]n(CCO)c1=O
52: CCOC(=O)N1CCc2c(sc3nc[nH]c(=O)c23)C1
53: Cc1nn(-c2ccc3nncn3n2)c(C)c1CCC(=O)Nc1ccc(OC(F)(F)F)cc1
54: CCS(=O)(=O)c1ccc(C(=O)Nc2nccs2)cc1
55: CCOC(=O)c1nc(NCc2ccccc2)c2ccccc2n1
compound no.	51	52	53	54	55
HCMV NEC inh	8	-136	x	-16	x
Sa growth inh second temp	96	72	91	89	64
GIV Gai3 FP	109	96	110	100	104
Sa growth inh	98	82	90	104	114

56: Nc1ccc(C(=O)OCN2C(=O)c3ccccc3C2=O)cc1
57: O=S(=O)(c1ccc2c(c1)OCCO2)N1CCCC1c1ccc(F)cc1 (configuration not stated)
58: CCN(C(=O)c1c(C(F)(F)F)ccnc1OC)c1c(C)cccc1C
59: CCn1nc(C)c(CCN(C)C(=O)NC2CCCC2)c1C
60: CCOC(=O)C(C#N)=C1C2CC3CC(C2)CC1C3
compound no.	56	57	58	59	60
HCMV NEC inh	-14	2	-2	14	-20
Sa growth inh second temp	90	x	93	x	84
GIV Gai3 FP	99	101	110	112	101
Sa growth inh	89	x	80	x	85

61: CC(=O)OC1C(OC(C)=O)N(C)C(=O)N1C (configuration not stated)
62: O=C(Oc1ccc2ccccc2c1C1SCCS1)c1cccs1
63: CCC(=O)N1CCN(c2ccc(NC(=O)c3ccccc3)cc2)CC1
64: Cc1cc(NC(=O)c2ccc(-c3ccc(Br)cc3)o2)cc(-c2nc3ncccc3o2)c1O
65: CC(C)Cc1cc(-c2nnc3sc(C4COc5ccccc5O4)nn23)n[nH]1 (configuration not stated)
compound no.	61	62	63	64	65
HCMV NEC inh	3	-28	-5	-3	-7
Sa growth inh second temp	91	88	87	89	x
GIV Gai3 FP	x	103	100	110	104
Sa growth inh	89	108	107	112	x

66: CCOC(=O)C1CCCN(Cc2cccs2)C1 (configuration not stated)
67: CCOC(=O)NC(C)C1CC2CCC1C2 (configuration not stated)
68: Cc1ccc(NC(=O)NCc2nc3ccccc3n2C)cc1
69: CCN(c1ccc(OC)cc1)S(=O)(=O)c1cc(-c2onc(C)c2C)ccc1OC
70: O=C(Cn1ccccc1=O)Nc1ccc(N2CCOCC2)cc1N1CCOCC1
compound no.	66	67	68	69	70
HCMV NEC inh	-2	2	-8	16	14
Sa growth inh second temp	110	91	86	111	95
GIV Gai3 FP	103	99	x	111	x
Sa growth inh	108	101	91	102	112

71: CSc1ccc(S(=O)(=O)N2CCC(C(=O)Nc3ccc4c(c3)OCO4)CC2)cc1
72: CCOC(=O)c1c(/N=C/c2ccc(N(C)C)cc2)sc(C)c1C
73: CC(C)CCn1c(=O)c2sccc2n2c(CCCC(=O)O)nnc12
74: O=C(O)C(CS(=O)(=O)Cc1ccccc1)N1Cc2ccccc2C1=O (configuration not stated)
75: CN(C)c1nc(Nc2ccc(F)cc2)nc(-n2cccn2)n1
compound no.	71	72	73	74	75
HCMV NEC inh	x	x	x	x	6
Sa growth inh second temp	71	89	78	90	93
GIV Gai3 FP	104	256	102	108	99
Sa growth inh	102	89	91	109	94

76: Clc1ss/c(=N\c2ccccn2)c1Cl
77: CN(CC(=O)Nc1ccc(N2CCOCC2)cc1)CC(=O)Nc1sc2c(c1C#N)CCCC2
78: NC(=S)NC(=O)c1ccc(Cl)cc1
79: CN(C)CCCNc1ncnc2c1oc1ccccc12
80: O=C(c1cc(-c2cccnc2)n(-c2ccc(F)cc2)n1)N1CCCCC1
compound no.	76	77	78	79	80
HCMV NEC inh	-19	-4	3	-17	7
Sa growth inh second temp	85	103	74	92	x
GIV Gai3 FP	x	x	x	x	101
Sa growth inh	93	98	82	82	x

81: COc1ccc(OC)c(/C=C(\C#N)c2nc3ccccc3c(=O)[nH]2)c1
82: CSc1nc(NCCO)c(C#N)c(-c2ccc(C)cc2)n1
83: O=C(c1c(F)cccc1F)N1CCCC1
84: CCCc1nnc(NC(=O)Nc2ccccc2Cl)s1
85: CCC1(c2ccccc2)NC(=O)N(Cc2ccccc2)C1=O (configuration not stated)
compound no.	81	82	83	84	85
HCMV NEC inh	-37	24	x	27	-25
Sa growth inh second temp	103	84	98	98	96
GIV Gai3 FP	114	105	98	105	x
Sa growth inh	93	110	96	99	109

86: Cc1ccc2snc(C(=O)N3CCN(C(=O)c4[nH]nc5c4CCc4ccccc4-5)CC3)c2c1
87: CCN1CCN(c2cc(C)nc3c(-c4ccc(C)cc4)c(C(F)(F)F)nn23)CC1
88: O=C1c2ccccc2-c2nn(C(=O)C3CCN(S(=O)(=O)c4cccs4)CC3)c3cccc1c23
89: CC(C)n1cnc2nc(CSc3ccccc3NC(=O)c3ccc(Br)cc3)cc(=O)n21
90: CC(N)(Cc1ccc2c(c1)OCO2)C(=O)O (configuration not stated)
compound no.	86	87	88	89	90
HCMV NEC inh	-13	-19	-18	-32	-19
Sa growth inh second temp	x	x	94	x	98
GIV Gai3 FP	105	93	x	103	x
Sa growth inh	x	x	96	x	109

91: CCOc1ccc(C2CC(c3c(O)n(C4CCCCC4)c(=O)[nH]c3=O)=Nc3ccccc3S2)cc1 (configuration not stated)
92: Cc1ccc(S(=O)(=O)N2CCC(NC(=O)c3ccccc3)CC2)cc1
93: Cc1cc(C)cc(NC(=O)Cn2c(=O)n(CCC(C)C)c(=O)c3cccnc32)c1
94: CCOc1ccc(CCNC(=O)Cn2nc(CC)n3c(cc4c(OC)cccc43)c2=O)cc1OCC
95: CN1C(=O)CC(N2CCN(C/C=C/c3ccccc3)CC2)C1=O (configuration not stated)
96: CC1=C(C(=O)N(C)C2CCCCC2)C2(CCC(C)CC2)OC1=O (configuration not stated)
97: O=C(COC(=O)C1Cc2ccccc2CN1C(=O)c1ccco1)NC12CC3CC(CC(C3)C1)C2 (configuration not stated)
compound no.	91	92	93	94	95	96	97
HCMV NEC inh	-18	-18	1	17	-34	x	-27
Sa growth inh second temp	86	98	88	84	102	95	84
GIV Gai3 FP	101	100	100	104	102	104	x
Sa growth inh	95	100	94	94	99	82	100

# Screening data (PubChem BioAssay)
